Screening data: PubChem BioAssay, National Center for Advancing Translational Sciences (NCATS)
Cruzain inh Det – cruzain (T. cruzi) inhibition with detergent; purified cruzain, Z-FR-AMC fluorescence, 0.01% Triton; Potency, µM, without a hit: max response, negative = inhibition, most hits filed as inhibitors; actives 0.43% (n = 200,000); AID 1478; active means well fitted curve in the direction sought with a large enough effect; inconclusive means small, poorly fitted or top-dose-only effect, or another doubt; inactive means no such curve, though single readings can be large; an effect the other way counts as inactive or inconclusive;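 further: plate controls were neutral wells for no effect and buffer without enzyme for full effect; nearly all actives have a fitted effect of over 40% in size; top concentration of the series not given in the record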
Target sequence (P25779 123-467 limits assumed): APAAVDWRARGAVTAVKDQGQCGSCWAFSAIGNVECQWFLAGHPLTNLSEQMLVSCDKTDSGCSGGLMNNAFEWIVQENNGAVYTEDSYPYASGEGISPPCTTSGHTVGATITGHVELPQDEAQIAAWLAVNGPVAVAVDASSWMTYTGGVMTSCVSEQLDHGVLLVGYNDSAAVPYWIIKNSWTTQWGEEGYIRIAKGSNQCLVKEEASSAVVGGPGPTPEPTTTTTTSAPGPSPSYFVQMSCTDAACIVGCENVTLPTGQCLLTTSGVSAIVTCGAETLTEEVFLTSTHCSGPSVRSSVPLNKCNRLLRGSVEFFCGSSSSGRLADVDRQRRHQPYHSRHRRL
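Compounds were screened in titration against cruzain (1.5 nM) with 0.01% Triton X-100 to counter colloidal aggregation. Activity was the AMC fluorescence increase over 60 s after adding 2 uM Z-FR-AMC at pH 5.5.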
SARS PLP yeast – SARS-CoV PLP inhibition in yeast. S. cerevisiae expressing SARS-CoV PLpro, growth rescue; control for the full effect not named in the record. Potency, µM (top dose mostly 32.9 µM), for inactives: at the top dose activity, positive = growth rescue. actives 0.19% (n = 330,000). AID 485353; further: 0% is about no effect; nearly all actives have a fitted effect of over 55% in size; growth read by luminescence after 48 h
Lassa entry inh – Lassa virus entry inhibition | Lassa virus pseudotype entry inhibition, cell reporter; control for the full effect not named in the record | Potency, µM (highest dose often 37.9 µM), for the others: at the top dose activity change, negative = inhibition, hits mostly inhibitors | actives 1.2% (n = 300,000) | AID 540256; active means well fitted inhibition curve with a large enough effect; inconclusive means small, poorly fitted or top-dose-only effect, or effect the other way; inactive means flat fitted curve, though single readings scatter; tested in HEK293 cells; further: on the % scale 0 is the no-effect control and ±100 the full control effect; nearly all actives have a fitted effect of over 50% in size; luciferase read-out
2A StopGo – FMDV 2A StopGo reporter, luciferase signal | human cells with a luciferase reporter of 2A StopGo recoding; control for the full effect not named in the record | Potency, µM (series often up to 57.9 µM), inactives show at the highest dose signal change, negative = less light | AID 1159524 | actives 1.2% (n = 410,000); active = well fitted falling curve with a large enough effect; inconclusive = small, poorly fitted or top-dose-only effect; inactive = no such curve, though single readings can be large or run the other way; tested in HEK293T cells; further: on the % scale 0 is the no-effect control and ±100 the full control effect; nearly all actives have a fitted effect of over 45% in size; luciferase light after 4 h
Cruzain inh noDet – blocks cruzain activity in detergent-free assay | actives 2.3% (n = 200,000) | Potency, µM, inactives show max response, negative = inhibition, most hits filed as inhibitors | AID 1476 | P25779 | purified cruzain, Z-FR-AMC fluorescence, no detergent; active means well fitted curve in the direction sought with a large enough effect; inconclusive means small, poorly fitted or top-dose-only effect, or another doubt; inactive means no such curve, though single readings can be large; an effect the other way counts as inactive or inconclusive;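 further: plate controls were enzyme without inhibitor for no effect and buffer without enzyme for full effect; nearly all actives have a fitted effect of over 40% in size; top concentration of the series not given in the record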
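Purified cruzain at 1.5 nM, pre-incubated 15 min with compound at room temperature in 100 mM sodium acetate pH 5.5, 5 mM DTT, 0.00005% Triton X-100. Reaction started with 2 uM Z-FR-AMC; AMC fluorescence increase over 60 s gives rate.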
MARV entry inh – blocks Marburg virus binding to or entry into cells | Marburg virus pseudotyped entry inhibition, cell reporter; control for the full effect not named in the record; about a third of the inactives were read at about 46 µM | actives 1.8% (n = 300,000) | Potency, µM (doses to about 37.8 µM), without a hit: at the top dose activity change, negative = inhibition, usual class: inhibitors | AID 540276; active = well fitted inhibition curve with a large enough effect; inconclusive = small, poorly fitted or top-dose-only effect, or effect the other way; inactive = flat fitted curve, though single readings scatter; tested in HEK293 cells; about a fifth of its hits are not listed in these tables; further: on the % scale 0 is the no-effect control and ±100 the full control effect; luciferase read-out
RE007 growth inh – less growth of the S. pombe RE007 Vpr strain; S. pombe RE007 Vpr strain, BacTiter-Glo ATP luminescence, 24 h; control for the full effect not named in the record; Potency, µM (titrated, usually from 92.2 µM), for inactives: at the highest dose activity change, negative = less growth; actives 0.21% (n = 360,000); active = well fitted falling curve with a large enough effect; inconclusive = small, poorly fitted or top-dose-only effect; inactive = no such curve, though single readings can be large or run the other way;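 further: on the % scale 0 is the no-effect control and ±100 the full control effect; nearly all actives have a fitted effect of over 50% in size; the assay follows cell death caused by Vpr and the record does not say whether a fall means rescue or toxicity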
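Fission yeast RE007 carrying one integrated HIV-1 vpr copy, seeded at OD 0.01 in PMG+AL medium with 23 nL pinned compound. Grown 24 h at 30 degrees; viability read by BacTiter-Glo luminescence after 5 min.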
NS1 inh – blocks influenza NS1 protein function; S. cerevisiae slowed by influenza A NS1, growth recovery by OD600; actives 0.4% (n = 270,000); AID 2326; Potency, µM (highest dose often 46.1 µM), inactives show top-dose activity, positive = more growth; further: actives are rising curves; nearly all actives have a fitted effect of over 50% in size
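A cell-based growth assay was used: compounds that relieve NS1-induced slow growth of budding yeast raise OD600. Assay medium was yeast nitrogen base with ammonium sulphate and -URA supplement, pH 6.0, with 2% galactose.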
* hit, by the source's call; ? = inconclusive; / = no result given; & = joins results of further samples; [ ] = another dose, or the depositor's remark. Unless noted, the call rests on the fitted dose curve; in most records, active means well fitted rising curve with a large enough effect; inconclusive means small, poorly fitted or top-dose-only effect; inactive means no such curve, though single readings can be large or run the other way. Potency means the concentration at half of the fitted maximal effect. Rows are unselected (roughly 4.7% active in at least one column).

smiles | Cruzain inh Det | RE007 growth inh | NS1 inh | Cruzain inh noDet | MARV entry inh | 2A StopGo | Lassa entry inh | SARS PLP yeast
Cc1cccc(C)c1NC(=O)COC(=O)CCC(=O)c1cccs1 | / | 3% | 3% | / | 3%[46.1 µM] | 10% | ? | 3%
CCOC1(c2ccccc2)OC(=O)c2ccccc21 (centres undefined) | -5.1% | 14% | -4% | -6% | 2% | 1% | ? | -17%
Brc1ccc(CNCc2cccs2)cc1 | -1.0% | 0% | ? | 5% | ? | 10% | 19% | 6%
CS(=O)(=O)c1cccc(-c2nnc(NC(=O)CCS(=O)(=O)c3ccccc3)o2)c1 | / | 7% | / | / | -13%[46.1 µM] | -4% | ? | -6%
COc1ccccc1CC(=O)Nc1ccccc1C(=O)O | 4.2% | -14% | -2% | 5% | 5% | 2% | 11% | 5%
O=C(O)c1ccc(N/N=C/C=C/c2ccc([N+](=O)[O-])o2)cc1 | / | -19% | -26% | / | -21%[46.1 µM] | 3% | / | -14%
NC(=S)N/N=C/c1coc2ccc(F)cc2c1=O | / | -19% | 0% | / | ? | -8% | 3% | 2%
CC(C)C[C@H](NC(=O)NCc1ccc(F)cc1)C(=O)O | / | 19% | 0% | / | 8% | 4% | -3% | 1%
Cc1nn(-c2ccccc2)c(N2CCCC2)c1/C=N/NC(=O)c1cc2ccccc2cc1O | -6.8% | -7% | ? | 16µM* | -7% | 40µM* | 5% | 13%
O=C(Nc1ccc(C(=O)N2CCCCC2)cc1)c1ccc([N+](=O)[O-])cc1 | / | 14% | 6% | / | ? | -9% | -11% | 9%
CCCCS/C(=C(/C#N)C(N)=O)c1cc2c([nH]1)CCCC2 | -9.6% | -12% | -84% | -4% | -23% | -21% | -19% | -14%
CCCCCCN1C(=O)C(O)=C(C(C)=O)C1c1ccccc1[N+](=O)[O-] (centres undefined) | / | -6% | 6% | / | 19%[46.1 µM] | -21% | -6% | 0%
O=C(Nc1cc(Cl)cc(Cl)c1)c1coc(=O)c(Br)c1 | / | 3% | 0% | / | ? | ? | -4% | 0%
Cc1ccc(-n2ncc3c(=O)n(CC(=O)OCc4ccccc4)cnc32)cc1 | 0.8% | 7% | 2% | -5% | -4% | 25% | -6% | 1%
CN1CCN(C(=O)C2(NC(=O)NCc3ccccc3)CCCCC2)CC1 | 3.4% | 2% | 7% | 4% | 5% | 0% | 8% | 0%
Cc1cccc(NC(=S)NNc2cccc(Cl)c2)c1 | / | 16% | -16% | / | ? | 67%[activator] | 4%[46.1 µM] | -1%
COc1cccc(C(=O)Nc2ccc(F)cc2F)c1 | 0.5% | -10% | -1% | -3% | 20% | 58%[activator] | -8% | 4%
CCc1ccc(-n2c(SCC(=O)Nc3ccc(C(=O)O)cc3)nnc2-c2ccncc2)cc1 | / | -1% | 11% | / | / | -2% | / | 1%
COc1ccccc1N1CCN(Cc2ccc(Br)s2)CC1 | -4.4% | 14% | -9% | -5% | ? | ? | ? | 6%
CCOC(=O)N1CCN(C(=O)c2ccccc2NC(C)=O)CC1 | / | 126% | 3% | / | 7%[46.1 µM] | -10% | -7% | 0%

A second format for part of the listing above.
CCc1ccc(-n2c(SCC(=O)Nc3ccc(C(=O)O)cc3)nnc2-c2ccncc2)cc1
  Cruzain inh Det = /
  RE007 growth inh = -1%
  NS1 inh = 11%
  Cruzain inh noDet = /
  MARV entry inh = /
  2A StopGo = -2%
  Lassa entry inh = /
  SARS PLP yeast = 1%

COc1ccccc1N1CCN(Cc2ccc(Br)s2)CC1
  Cruzain inh Det = -4.4%
  RE007 growth inh = 14%
  NS1 inh = -9%
  Cruzain inh noDet = -5%
  MARV entry inh = ?
  2A StopGo = ?
  Lassa entry inh = ?
  SARS PLP yeast = 6%

CCOC(=O)N1CCN(C(=O)c2ccccc2NC(C)=O)CC1
  Cruzain inh Det = /
  RE007 growth inh = 126%
  NS1 inh = 3%
  Cruzain inh noDet = /
  MARV entry inh = 7%[46.1 µM]
  2A StopGo = -10%
  Lassa entry inh = -7%
  SARS PLP yeast = 0%

Remaining list, next part:
smiles | Cruzain inh Det | RE007 growth inh | NS1 inh | Cruzain inh noDet | MARV entry inh | 2A StopGo | Lassa entry inh | SARS PLP yeast
COC(=O)c1ccc(NC(=O)C2CCN(C(=O)c3cc(OC)c(OC)c(OC)c3)CC2)cc1 | -9.3% | 255% | -5% | 6% | 19%[46.1 µM] | -7% | 0% | 6%
CCCN(CCC)S(=O)(=O)c1ccc(C(=O)Nc2nc(-c3ccccc3)c(C(=O)OCC)s2)cc1 | -4.5% | 34% | 1% | -25% | -6% | ? | ? | 11%
CCCN1C(=O)/C(=C/c2ccc(N3CCCC3)c(C)c2)NC1=S | -4.3% | -1% | -17% | ? | ? | -11% | ? | -17%
Cc1ccc(CNC(=O)c2ccccc2NC(=O)C2=CSCCO2)cc1 | / | 6% | 2% | / | / | -9% | / | 1%
CCN1CCN(C(CNC(=O)c2ccc3c(c2)OCO3)c2cccnc2)CC1 (centres undefined) | 1.0% | -2% | -19% | 0% | 4% | 10% | -6% | -11%
Cc1ccccc1-c1nn2c(=O)cc(CN3CCN(C(=O)/C=C/c4ccccc4)CC3)nc2s1 | -10% | / | / | -19% | / | -15% | 6%[46.1 µM] | /
Cc1cccc(C)c1NC(=O)c1cc(-c2ccccn2)nc2ccccc12 | / | -12% | / | / | ? | ? | ? | 3%
CCOC(=O)c1sc(NC(=O)C2CC2)cc1C | -4.6% | 3% | -126% | -6% | / | 17% | / | -20%
COc1cc(-c2cc(OC)c3c(C)oc(C)c3c(=O)c2)ccc1OC(=O)c1cccc(Cl)c1 | 5.6% | / | / | 15% | 0%[46.1 µM] | ? | 3%[46.1 µM] | /
O=C(N=C1SC2CS(=O)(=O)CC2N1c1ccc(Br)cc1)C1CCCO1 (centres undefined) | / | -4% | 1% | / | 0%[46.1 µM] | 3% | 3%[46.1 µM] | 2%
COc1cc(C(=S)N2CCOCC2)cc(OC)c1OC | / | 10% | 3% | / | -16%&-16%[46.1 µM] | 7% | 1%[46.1 µM] | 0%
CCOc1ccc(/C=N/NC(=O)c2[nH]c3ccc(C)cc3c2C)cc1 | / | -7% | -1% | / | ? | 8% | ? | -2%
O=C(NCCCn1ccnc1)/C(=C\c1cccnc1)NC(=O)c1ccco1 | / | 7% | / | / | ? | -1% | 11%[46.1 µM] | 0%
CCCNc1nc2ccccc2c(=O)[nH]1 | / | 9% | / | / | ? | -13% | 5%[46.1 µM] | 2%
CC1CCc2sc(C(=O)NCc3ccc(F)cc3)cc2C1 (centres undefined) | -5.1% | 0% | -5% | -10% | -6% | 38%[activator] | 5% | -9%
O=C(NN=C1CCCC1)c1cc(Cl)cc(Cl)c1O | / | 10% | -11% | / | / | -10% | / | 0%
COc1cc(/C=N/NC(=O)Cn2nnc3ccccc32)ccc1O | / | 3% | 2% | / | / | 12% | / | 2%
CC(=O)N1CCN(c2ccc([N+](=O)[O-])cc2C=C2C(=O)NC(=O)NC2=O)CC1 | -9.1% | 27% | 1% | 9% | -3% | -12% | ? | -2%
Nc1ccc2nc3c(=O)n(CCc4ccccc4)c(=O)[nH]c3nc2c1 | / | -7% | 0% | / | ? | -21% | ? | -3%
Cc1ccc(C)c(-n2c(-c3ccco3)n[nH]c2=S)c1 | / | 4% | / | / | 9% | -13% | 7% | /
COc1cccc(-c2nc(CS(=O)(=O)CC(=O)NCCCN3C(C)CCCC3C)c(C)o2)c1 (centres undefined) | / | -13% | -5% | / | ? | -17% | ? | -3%
Cc1ccc(N(CC(=O)Nc2cccc(F)c2)S(=O)(=O)c2cccs2)cc1 | -5.4% | / | / | -3% | 3%[46.1 µM] | 25% | 10%[46.1 µM] | /
O=C(COc1ccc(Br)cc1CO)Nc1ccccc1F | 1.5% | 12% | -74% | 2% | ? | 10% | 9% | -6%
CCCC(=NC(C)CC)C1=C(O)CC(c2ccccc2)CC1=O (centres undefined) | / | -20% | -62% | / | -14%[46.1 µM] | -11% | -17% | -6%
CC(C)(C)c1ccc(O)c(N=Cc2cc3c(cc2[N+](=O)[O-])OCO3)c1 | / | 9% | ? | / | -16%[46.1 µM] | -21% | 18%[46.1 µM] | 0%
S=C(Nc1ccccc1)Nc1ccc2cn[nH]c2c1 | / | 14% | 0% | / | / | 39%[activator] | / | -2%
Cc1c(NS(=O)(=O)c2cc(C(=O)N3CCCC(C)C3)ccc2Cl)c(=O)n(-c2ccccc2)n1C (centres undefined) | / | 0% | / | / | ? | 5% | -10%[46.1 µM] | -13%
O=C(Nc1nc2ccc(Cl)cc2s1)c1cccc(N2C(=O)CCC2=O)c1 | / | 2% | / | / | -1% | 23% | 1% | -4%
CCOC(=O)c1cc(-c2cccnc2)nn1-c1ccccn1 | -0.9% | 15% | 0% | 0% | -4% | ? | 10% | 7%
O=C(CCN1CCOCC1)Nc1cccc(Br)c1 | 9.4% | 0% | 2% | -10% | 2% | -6% | -9% | 3%
COc1ccccc1NC(=O)CSc1nnc(CNC(=O)c2ccco2)o1 | 3.1% | 18% | 6% | 13% | 1% | 4% | 10% | /
COc1cc(/C=C(\C#N)C(=O)NCC2CCCO2)ccc1OCCC(C)C (centres undefined) | / | -19% | 8% | / | 11%[46.1 µM] | 18% | -23%[46.1 µM] | 0%
COc1ccccc1-c1cc(C(=O)N2CCCCC2)no1 | 8.4% | -15% | -38% | -10% | / | 56%[activator] | / | -7%
Cc1[nH]c2ccc(F)cc2c1CCN(Cc1cccnc1)C(=S)Nc1cccc(F)c1 | / | -13% | / | / | ? | -11% | ? | 0%
